CtBP-E1A inh = inhibitors of CtBP/E1A interaction; AlphaScreen GST-E1A/His-CtBP binding, 1536-well; hits give low values; control for the full effect not named in the record; activity change, % (test concentration not listed); 0.49% of 340,000 active; AID 651724; in the data active means activity change below about -65%; inconclusive means about -30% to -65%; inactive means above about -30%; further: on the % scale 0 is the no-effect control and ±100 the full control effect; compound concentration not given in the record
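In 5 uL wells, 23 nL compound meets equimolar GST-E1A and His-CtBP (5X stock 125 nM each) for 2 h, 37 °C. Beads (5X, 50 ug/mL) then 1 h, 37 °C, dark.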
D2 potentiator = potentiates the human D2 dopamine receptor allosterically; DiscoveRx D2 beta-arrestin cells, luminescence, 90 min; 100% = 57 uM dopamine signal; potentiation, % (test concentration not listed); 0.23% of 360,000 active; active = potentiation of 50% or more; inconclusive = 30% to 50%; inactive = 30% or less;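 further: compound concentration not given in the record; tested on top of an EC20 dose of dopamine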
Target sequence (P14416 whole entry, looked up): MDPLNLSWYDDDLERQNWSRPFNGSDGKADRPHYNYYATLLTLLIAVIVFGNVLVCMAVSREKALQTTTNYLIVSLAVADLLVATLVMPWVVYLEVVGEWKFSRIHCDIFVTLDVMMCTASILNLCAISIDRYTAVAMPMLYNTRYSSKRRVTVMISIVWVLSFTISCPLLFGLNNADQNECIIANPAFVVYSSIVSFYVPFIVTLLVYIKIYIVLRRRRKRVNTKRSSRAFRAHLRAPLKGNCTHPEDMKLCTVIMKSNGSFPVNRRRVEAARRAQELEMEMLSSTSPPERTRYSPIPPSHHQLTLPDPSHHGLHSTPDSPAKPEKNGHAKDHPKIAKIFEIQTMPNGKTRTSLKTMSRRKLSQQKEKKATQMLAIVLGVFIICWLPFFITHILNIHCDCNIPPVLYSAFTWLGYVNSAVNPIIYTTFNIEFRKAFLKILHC
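D2 cells co-treated with compound plus 50 nM dopamine (EC20) for 90 min at 37 deg C to detect potentiation. Beta-arrestin recruitment was read as enzyme-fragment luminescence after 1 h at ambient temperature. Full response was set by 57 uM dopamine.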
D2 agonist = activates the human D2 dopamine receptor | activation, % (test concentration not listed) | P14416 | DiscoveRx PathHunter D2 beta-arrestin, luminescence, 90 min; 100% = 57 uM dopamine signal | AID 624465 | 0.084% of 360,000 active; in the data active = activation above about 40%; inconclusive = about 15% to 40%; inactive = below about 15%; further: compound concentration not given in the record; the text of the record calls up to 30% inactive
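DiscoveRx PathHunter D2 beta-arrestin cells (2,100/well) attached overnight, then compound-stimulated 90 min at 37 C in HBSS/10 mM HEPES/0.1% Tween-20 buffer; beta-galactosidase complementation read by luminescence after 1 h at ambient temperature. Dopamine 57 uM final (EC100) as control.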
PINK1 expr mod = PINK1 expression modulation; Potency, µM (titrated, usually from 76.6 µM), inactives show at the highest dose activation (PINK1 increase), hits mostly activators; 0.2% of 410,000 active; AID 624263; PINK1 immunofluorescence, high-content cytometry, 24 h; active = well fitted activation curve with a large enough effect; inconclusive = small, poorly fitted or top-dose-only effect; inactive = flat fitted curve, though single readings scatter; cell line not stated here;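 further: potency means the concentration at half of the fitted maximal effect; % of control where 0% means no effect; nearly all actives have a fitted effect of over 65% in size; a mitochondrial uncoupler was the plate control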
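Fluorescence from anti-PINK1 antibody, together with nuclear and cell stains, was scanned on a laser-scanning cytometer. Before staining, stable-line cells were incubated 24 hours with compounds at 5 concentrations; primary antibody 12 h at 10 degrees C.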
Six1-Eya2 blk = inhibitors of human Six1/Eya2 interaction; Q15475+O00167; AlphaScreen GST-Six1/His-Eya2 binding, biochemical; hits give low values; control for the full effect not named in the record; activity change, % (no concentration beside the values); 0.56% of 360,000 active; in the data active = activity change below about -65%; inconclusive = about -30% to -65%; inactive = above about -30%; further: on the % scale 0 is the no-effect control and ±100 the full control effect; compound concentration not given in the record
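GST-Six1 + His-Eya2 (5X stock: 250/500 nM); Tris pH 8.0, 300 mM NaCl, 0.05% BSA, 0.02% Tween 20; GSH donor/Ni acceptor beads; 1 h 37 °C dark; AlphaScreen readout.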
TRPML1 ag = agonists of human TRPML1 channel; Q9GZU1; TRPML1-expressing cells, Ca2+ dye fluorescence, FDSS; host cell line not named in the record; reference of the full effect not given here; activation, % (test concentration not listed); 0.12% of 410,000 active; AID 624414; in the data active = activation above about 50%; inconclusive = about 30% to 50%; inactive = below about 30%; further: 0% is about no effect; the text of the record puts the active cut at 80%
Target sequence (Q9GZU1 whole entry, looked up): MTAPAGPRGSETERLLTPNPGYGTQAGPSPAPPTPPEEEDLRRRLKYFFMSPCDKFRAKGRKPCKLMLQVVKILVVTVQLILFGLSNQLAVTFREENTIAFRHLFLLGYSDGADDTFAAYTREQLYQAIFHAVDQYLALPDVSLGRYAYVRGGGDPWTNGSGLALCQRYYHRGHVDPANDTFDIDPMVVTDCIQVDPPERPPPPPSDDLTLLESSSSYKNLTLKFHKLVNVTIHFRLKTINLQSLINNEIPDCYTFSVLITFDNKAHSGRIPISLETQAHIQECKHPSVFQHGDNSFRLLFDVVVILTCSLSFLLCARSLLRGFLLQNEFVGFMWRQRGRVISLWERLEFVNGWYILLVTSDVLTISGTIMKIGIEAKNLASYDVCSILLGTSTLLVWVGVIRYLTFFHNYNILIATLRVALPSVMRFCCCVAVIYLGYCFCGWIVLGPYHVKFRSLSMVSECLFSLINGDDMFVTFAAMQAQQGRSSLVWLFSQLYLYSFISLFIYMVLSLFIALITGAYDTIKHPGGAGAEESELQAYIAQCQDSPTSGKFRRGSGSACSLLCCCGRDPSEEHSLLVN
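Tet-induced TRPML1-DL cells, 1,500 per well, cultured overnight, were loaded with a no-wash Ca2+ dye for 45–90 min. Calcium fluorescence was recorded on the FDSS for 110 s after compound addition, before the EC80 agonist (4 uM 54-4) was added.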
The depositor's hits bear a star; u = inconclusive; x = not tested or not shown; & = joins results of further samples; [ ] = remark or other dose.

Sample of the layout, 2 compounds:
SMILES,CtBP-E1A inh,D2 potentiator,D2 agonist,PINK1 expr mod,Six1-Eya2 blk,TRPML1 ag
O=C(CN1C(=O)c2ccccc2C1=O)N1CCN(c2nnc(-c3ccccc3)c3ccccc23)CC1,2,1,-2.1,-1.7%[38.3 µM],1,1.0
Cc1[nH]c2ccccc2c1[C@H]1[C@@H](CC#N)C1(C)C,-17,5,-3.8,1.0%,-15,1.4

All compounds of this part, from the first entry:
SMILES,CtBP-E1A inh,D2 potentiator,D2 agonist,PINK1 expr mod,Six1-Eya2 blk,TRPML1 ag
O=C(CN1C(=O)c2ccccc2C1=O)N1CCN(c2nnc(-c3ccccc3)c3ccccc23)CC1,2,1,-2.1,-1.7%[38.3 µM],1,1.0
Cc1[nH]c2ccccc2c1[C@H]1[C@@H](CC#N)C1(C)C,-17,5,-3.8,1.0%,-15,1.4
O=C(Nc1ccc(S(=O)(=O)NCc2ccco2)cc1)C1CCCCC1,-1,-4,-0.8,3.0%,12,-0.8
CCC(C)NC(=O)COC(=O)Cc1sc(N)nc1-c1ccc(C)cc1 (stereo unspecified),1,-1,-4.6,0.1%,7,-0.4
Cc1ccccc1Cn1cc(NC(=O)c2nc3ncccn3n2)cn1,-2,4,2.2,-1.1%[38.3 µM],-2,0.1
Cc1nn(S(=O)(=O)c2ccc(F)cc2)c(C)c1S(=O)(=O)N1CCCCC1,4,-8,-5.7,-0.6%&1.8%,8,-0.9&0.2
CCCCn1c(SCC(=O)c2ccc(O)cc2O)nc2cc(S(N)(=O)=O)ccc21,0,-5,-2.5,1.3%,1,1.1
CC(=O)Nc1ccc(C(=O)N2CCCCC2c2cc(C(=O)N3CCOCC3)no2)cc1 (stereo unspecified),-12,-7,-5.8,-0.7%,10,-0.3
COc1ccc(C(=O)NCCc2nnc3ccc(SCC(=O)Nc4ccccc4F)nn23)cc1,-6,17,-0.6,-0.2%,7,0.6
CC(C)CCNC(=O)CNC(=S)N(CCCN1CCOCC1)Cc1cccs1,-5,-7,0.9,0.5%,8,0.3
COc1cc(SC)ccc1C(=O)Nc1nc(C)cs1,x,0,-4.5,0.1%,-9,0.0
CC(C)c1nc(CNC(=O)CCc2nnc(-c3ccsc3)o2)cs1,7,-2,-0.6,1.4%,3,-0.2
CC(=O)c1nn(-c2ccc(Cl)cc2)cc1C(=O)c1ccccc1,12,-28,0.7,9.2%,-3,2.0
CC(NS(=O)(=O)c1ccc2c(c1)CC(=O)N2C)c1ccccc1 (stereo unspecified),29,2,-1.4,-0.2%,16,0.2
CC(C)(C)c1ccc(C(O)c2ncc(-c3ccccc3Cl)[nH]2)cc1 (stereo unspecified),-2,-2,-1.5,8.1%,-14,-1.0
CC(=O)Nc1ccc(S(=O)(=O)N2CCN(S(=O)(=O)c3ccc(NC(C)=O)cc3)CC2)cc1,6,0,-2.9,7.1%,0,0.3
CCn1c2ccccc2c2cc(NC(=O)COC(=O)c3cc(S(N)(=O)=O)c(Cl)cc3Cl)ccc21,-3,-4,11,1.5%,-4,1.3
CCOc1ccc(CNS(=O)(=O)c2cc(-c3cc(C)no3)ccc2OC)cc1OC,3,-2,-4.2,-1.2%,4,-0.4
O=C(NNC(=O)c1cccnc1)Nc1cccc2ccccc12,4,-3,-3.1,0.8%,-3,-1.2
C/C(=N\NC(=O)c1ccc(N2CCCC2=O)cc1)c1ccncc1,-22,-3,0.0,1.6%,5,-0.1
COc1ccc(NC(=O)CCS(=O)(=O)c2ccc3nc(C)sc3c2)cc1OC,-12,-4,-0.1,0.0%,6,-0.1
C/C(=N\NC(=O)c1c(Cl)c(C)nn1C)c1cccc(NC(=O)COc2ccc(Cl)cc2)c1,10,-14,-4.5,8.2%,1,0.5
C/C(=N\N1CCN(C2c3ccccc3-c3ccccc32)CC1)c1cccnc1,-17,1,-2.9,0.0%,-22,0.8
CC1=CC(c2ccccc2)NC(=S)N1 (stereo unspecified),8,-1,-1.0,4.3%,0,-0.5
O=C(NCc1nc(-c2ccccc2)no1)c1cccs1,4,-14,-0.6,0.2%[38.3 µM],2,-0.3
O=C(NC(=S)Nc1ccc2c(c1)OCO2)c1ccc(Cl)cc1,3,-23,4.4,19%,2,1.2
CCN1C[C@@H]2[C@@H]3C(=O)N(Cc4ccccc4)C(=O)[C@@H]3[C@](C)(C1=O)N2C(=O)c1ccc(C)cc1,2,-10,-2.1,-0.5%,0,-0.1
Fc1ccc(N2CCN(c3ccc4c(C(F)(F)F)cc(C(F)(F)F)nc4n3)CC2)cc1,8,-8,-1.1,x,2,0.2
Cc1ccc2nc(-c3cccc(S(=O)(=O)N(C)C)c3)cn2c1,-2,28,2.0,0.1%,0,-1.2
O=C(O)CCCNS(=O)(=O)c1ccc(Br)s1,8,3,-3.3,x,0,0.4
COc1ccc(/C=C/C(=O)Nc2cc(F)ccc2C)cc1S(=O)(=O)N1CCOCC1,-10,3,0.5,2.0%,-4,-0.7
CCn1nc(NS(=O)(=O)c2ccccc2[N+](=O)[O-])c2cc3cccc(C)c3nc21,-20,-8,-0.7,1.4%,-13,-1.2
CCOC(=O)[C@@H]1[C@H]2COc3ccc(Br)cc3[C@@H]2N2C(=O)N(c3cccc(F)c3)C(=O)[C@@]12C,x,-11,-3.7,1.3%,-3,-0.3
COc1ccc(CNC(=O)C2CCN(S(=O)(=O)c3ccc(N4CCCC4=O)cc3)CC2)cc1,-5,-1,-2.2,1.0%,7,-0.7
CCN1C(=O)[C@H]2[C@@H](c3ccc(SC4CCCCC4)cc3)N[C@@](CC(C)C)(C(=O)OC)[C@H]2C1=O,4,-12,-4.3,4.7%,-6,-0.3
C/C(=N\NC(=O)CCC(=O)O)c1c(-c2ccccc2)c2cc(Br)ccc2[nH]c1=O,7,0,-3.7,2.3%,0,x
CCCn1nnnc1SCC(=O)Nc1ccc(F)cc1,5,-1,-5.1,-0.9%,6,-0.7
COc1ccccc1CNc1ncnc2sccc12,0,4,2.2,3.8%,5,0.6
CC1CCN(CCCNC(=O)c2ccc(N3CCCC3=O)cc2)CC1,3,-29,-2.3,1.4%,0,-0.4
COc1ccc(/C=c2\s/c(=C/C(=O)c3ccc(C)cc3)[nH]c2=O)c(OC)c1,2,-5,-0.6,u,3,u
Cc1cc(CSc2ccccc2)ccc1NC(=O)COc1ccccc1C,5,-3,0.0,3.9%,4,0.9
COC(=O)C1=CN(c2ccc(F)cc2)C=C(C(=O)OC)C1c1ccc(O)cc1,-2,-4,-0.7,2.3%,0,3.2
COc1ccc(CNC(=O)Cn2nnc3ccccc3c2=O)cc1,x,-10,-1.2,-0.3%,4,-1.0
O=C(CCc1nc2sc3c(c2c(=O)[nH]1)CCCC3)Nc1cccc(Cl)c1,-5,u,1.6,14%,-25,1.3
CC(C)(C)n1nnnc1C(c1ccccc1)N1CCCN(Cc2ccc(F)cc2)CC1 (stereo unspecified),-2,x,x,-0.1%,1,-0.5
N#CC1=C(S)N(c2ccc(F)cc2)C(c2cccs2)NC1=O (stereo unspecified),6,-3,-4.4,3.1%,0,-0.2
Cc1ccc(C)c(-n2nnnc2SCC(=O)NNC(=O)c2ccco2)c1,x,-3,-5.0,1.2%,7,0.5
C/C=C/c1ccc(OC(C)=O)c(OC)c1,5,-3,-0.1,1.6%,2,2.0
CC(=O)Nc1cc(-c2ccc(N(C)C)cc2)cn2c(-c3ccc(F)cc3)cnc12,-16,-5,3.6,2.0%,-17,5.5
O=C(NC(=S)Nc1ccccc1N1CCOCC1)c1sc2ccccc2c1Cl,-10,-6,-3.0,-0.3%,-4,0.0
Cc1ccc(C(=O)N(Cc2ccc3c(c2)OCO3)Cc2nc3ccccc3c(=O)[nH]2)cc1,2,2,-1.4,x,-2,1.2
COc1cc2ncnc(NCc3cccc(F)c3F)c2cc1OC,x,-11,1.3,1.9%,-6,1.2
O=C(OCC(=O)N1CCc2ccccc21)c1ccccc1[N+](=O)[O-],-10,9,1.1,1.0%,-10,3.3
CCCn1c(N)c(C(=O)CSc2nc(N)cc(=O)[nH]2)c(=O)n(C)c1=O,u,0,-1.5,0.3%,-13,0.4
CCc1nc2ccc(C(=O)Nc3cccc(OC)c3)cn2c1N(C)Cc1ccc(OC)cc1,-14,-6,8.7,-0.3%,-7,-0.9
CCOc1ccccc1-n1nnnc1SCC(=O)Nc1cc(C)on1,7,-10,-4.1,-0.4%[38.3 µM],-2,1.1
COc1cc(NC(=S)NCc2ccc(S(N)(=O)=O)cc2)cc(OC)c1,x,-6,2.7,1.0%,-8,0.2
Cc1ccc(-c2nc3ccccc3s2)cc1NC(=S)NC(=O)c1cccc2ccccc12,9,-7,-1.4,-2.7%,5,-0.5
Cc1ccc(C(=O)N(CC(=O)NC2CCCC2)c2cccc(F)c2)s1,-12,-9,-4.0,2.5%,0,-0.3
Cc1ccccc1Oc1ccc2c(c1)[C@@H]1C[C@H](N(C)C(=S)Nc3ccc(F)cc3)[C@H]([C@H](C)O)C(=O)N1CC2,-5,-2,-0.8,3.1%,-22,-0.5

(list continues)
SMILES,CtBP-E1A inh,D2 potentiator,D2 agonist,PINK1 expr mod,Six1-Eya2 blk,TRPML1 ag
COC(=O)[C@@H]1C[C@@]2(O)[C@@H](O)[C@@H](O)[C@@H](O)C[C@H]2N1Cc1ccc(-c2ccccc2)cc1,2,-32,-3.5,1.4%,-20,-0.8
Cc1nnc(SCC(=O)NC(C)(C)C)n1NCc1ccc(Cl)cc1,-7,-3,0.4,1.0%,8,-0.3
COc1ccccc1[C@H]1C(c2ccccc2)=NN(c2ccccc2)[C@@H]1CO,61,-1,-3.1,4.8%,58,0.0
CCOC(=O)CNC(=O)c1ccc(OCC(F)(F)F)cc1,x,-10,3.5,0.3%,1,0.5
CCc1ccc(-c2cc(C(=O)Nc3c(C)n(C)n(-c4ccccc4)c3=O)c3ccccc3n2)s1,-12,-7,-1.1,-1.0%[38.3 µM],-10,1.4
Cc1cc(C(=O)Nc2sc3c(c2C#N)CCCCC3)cs1,0,-4,0.6,u,0,1.0
COc1ccc(-c2cn(-c3ccc(C)cc3)c(=O)n2CC(=O)Nc2ccc(OC)cc2OC)cc1,-17,-6,-3.4,3.6%,-21,0.6
Clc1cccc(CN2CCN(c3ncccn3)CC2)c1Cl,11,24,u,7.3%,-2,2.4
CCSc1n[nH]c(=S)s1,-1,-13,0.8,-0.7%,8,0.5
CCc1c(C)[nH]c2ccc(OC)cc2c1=S,x,-10,-4.1,0.4%,5,1.0
CCOC(=O)c1cc2cc(OC)ccc2[nH]1,-3,4,-1.8,-0.2%,0,1.8
CC(C)[C@H](NS(=O)(=O)c1cccc(C(F)(F)F)c1)C(=O)OCC(=O)NC(=O)NCc1ccco1,-9,-5,3.6,3.1%,-17,2.0
C/C(=N/OC(=O)c1ccccc1Br)c1ccc(C)cc1,58,-20,-2.5,5.3%,40,2.1

From PubChem
